Ecoli growth: blocks Escherichia coli growth. OD600 absorbance (concentration not given with the values). actives 0.21% (n = 330,000). OD600, 23 h; hits give low values;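 active = OD600 absorbance below the run mean of sample wells minus 3.6 SD, in any replicate, cut at about 0.56 in these data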;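 also: stock transfer was 300 nL into about 60 µL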
FGF22 binding: FGF22 (human) thermal shift binding. Q9HCT0. recombinant FGF22 thermal shift, SYPRO orange fluorescence; percent of sucrose octasulfate shift, DMSO zero. calls only at 9.99 µM. actives 1.5% (n = 340,000);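 active = melting point raised past a set limit in the mean and every replicate; inconclusive = no clear call; three in four hits are not shown here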
Target sequence (Q9HCT0 whole entry, looked up): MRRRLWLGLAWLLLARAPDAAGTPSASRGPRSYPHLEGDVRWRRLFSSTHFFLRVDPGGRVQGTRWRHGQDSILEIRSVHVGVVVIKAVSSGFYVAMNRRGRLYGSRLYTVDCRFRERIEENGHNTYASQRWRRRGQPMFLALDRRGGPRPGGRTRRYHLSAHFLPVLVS
UCH37 inh: blocks the human deubiquitinase UCH37 | Q9Y5K5 | purified proteasome/UCH37, Ub-AMC cleavage fluorescence | inhibition, % (no concentration beside the values) | actives 0.33% (n = 330,000);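 active = mean of two replicates above 20%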;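 also: 0% = compound-free wells with enzyme and 100% = wells lacking proteasome; stock transfer was 100 nL into about 20 µL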
Target sequence (Q9Y5K5 whole entry, looked up): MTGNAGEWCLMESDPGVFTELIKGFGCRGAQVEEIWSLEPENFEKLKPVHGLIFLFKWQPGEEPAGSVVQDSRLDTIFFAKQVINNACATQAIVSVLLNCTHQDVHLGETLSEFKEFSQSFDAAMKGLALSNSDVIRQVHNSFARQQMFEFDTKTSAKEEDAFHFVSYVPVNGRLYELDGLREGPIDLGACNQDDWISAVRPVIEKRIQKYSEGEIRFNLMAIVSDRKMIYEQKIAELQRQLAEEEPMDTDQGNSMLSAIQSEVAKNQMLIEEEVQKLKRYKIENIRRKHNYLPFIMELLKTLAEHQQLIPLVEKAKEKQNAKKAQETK
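Schedule: 30 min plus 25 min, room temperature / Material: human UCH37 within purified proteasomes / Technique: AMC fluorescence intensity at 355/460 nm / Buffer or medium: pH 7.4 Tris-HCl (50 mM) with ovalbumin, ATP-MgCl2, DTT / Controls: wells without proteasome as full block, compound-free enzyme plus substrate as uninhibited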
HNF4A DNA FP: change in binding of human HNF4 alpha to DNA; P41235; HNF4a-FITC DNA binding, fluorescence polarization, 1 h; activity change, % at 10 µM; actives 0.3% (n = 360,000); in the data active = activity change above about 30%, passing the limit was not always enough;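 also: controls were the assay level and a saturating level of protein; the project sought stronger binding though the title names inhibitors; some compounds called inactive have numbers as strong as hits; positive values seem to mean higher polarization but the record does not say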
Target sequence (P41235 whole entry, looked up): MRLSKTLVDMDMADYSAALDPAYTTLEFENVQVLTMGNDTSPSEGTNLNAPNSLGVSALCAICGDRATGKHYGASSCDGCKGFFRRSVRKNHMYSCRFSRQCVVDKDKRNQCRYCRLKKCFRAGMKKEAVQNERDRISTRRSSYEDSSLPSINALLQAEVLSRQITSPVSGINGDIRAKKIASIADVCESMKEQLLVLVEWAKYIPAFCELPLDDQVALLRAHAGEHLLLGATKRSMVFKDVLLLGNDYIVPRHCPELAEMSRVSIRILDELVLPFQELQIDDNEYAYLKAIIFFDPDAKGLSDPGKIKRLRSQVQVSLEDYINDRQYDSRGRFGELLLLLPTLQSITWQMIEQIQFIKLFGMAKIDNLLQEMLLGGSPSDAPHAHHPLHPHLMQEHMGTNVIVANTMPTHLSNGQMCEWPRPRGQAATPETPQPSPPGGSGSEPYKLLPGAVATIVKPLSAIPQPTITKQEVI
RanGTP-Imp inh: inhibitors of RanGTP-importin-beta interaction, primary screen, biochemical, FRET, CFP-Ran, YFP-importin-beta, homogeneous; cell-free CFP-Ran/YFP-importin-beta FRET ratio; inhibition, % (no concentration beside the values); actives 1.1% (n = 300,000); AID 2216;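 active = most replicates above 15%; inconclusive = exactly half above 15%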;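 also: 0% = DMSO wells and 100% = Ran loaded with GDP instead of GTP; wells of about 40 µL received 100 nL stock; the first replicate is given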
AF4-AF9 inh: blocks AF4 peptide binding to human AF9 | actives 0.47% (n = 350,000) | P42568 | AlphaScreen, biotin-AF4 peptide binding to FLAG-AF9 | inhibition, % at 10 µM | AID 651704;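 active = every replicate reaching a set inhibition limit, whatever the replicate mean, cut at about 25% in these data; inconclusive = mean inhibition reaches that limit but some replicates miss it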;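 also: 0% = plate neutral control median and 100% = total signal loss; the record names both 10 and 1 µM as test concentration; the first replicate is given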
Vif TR-FRET: inhibitors of Vif binding to APOBEC3G peptide, primary screen, biochemical, TR-FRET, GST-Vif 1-94, biotin-A3G peptide, dose response retest (AID 1117319). TR-FRET GST-Vif / biotin-A3G peptide binding; higher % means a stronger effect; test concentration not given here; strong numbers were not always called active. inhibition, %; hits with a dose series show IC50 in µM. actives 0.57% (n = 260,000);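 active = above the screen mean plus three standard deviations and confirmed in dose response; inconclusive = results disagree or hit not tested in dose response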;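 also: Vif residues 1-94 fused to GST binding biotinylated APOBEC3G peptide 110-148; 0% = full assay without inhibitor and 100% = GST in place of GST-Vif; retest series ran down from 100 µM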
* marks the source's active call; other numbers are inactive results; i = inactive; ? = inconclusive; nt = no result given; + = active, no number; & = joins results of further samples. The list is partial, so the mix of outcomes need not match the whole.

Second line of a record: Ecoli growth	FGF22 binding	UCH37 inh	HNF4A DNA FP	RanGTP-Imp inh	AF4-AF9 inh	Vif TR-FRET
COc1ccc(OC)c(NC(=O)c2ccc3c(c2)C(=O)N(c2ccc(OC(C)=O)cc2)C3=O)c1
    0.694	i	3.1	0.5	1.7	1.7	-12.0%
COc1ccc2[nH]c(=O)c(CN(Cc3nnnn3CCc3ccccc3)CC3CCCO3)cc2c1 (centres undefined)
    0.767	nt	-8.8	1.9	-5.8	nt	27.7%
CCOC(=O)c1c(C)nc(C)c(C(=O)OCC)c1-c1ccco1
    0.693	i	4.0	-5.3	0.1	2.1	30.6%
CCC(=O)N(c1nnc(SC(C)C(=O)Nc2ccc(N3CCOCC3)cc2)s1)C1CC1 (centres undefined)
    nt	i	nt	0.5	nt	-1.0	-6.0%
OCCN1CCN(CCOc2ccccc2-c2ccccc2)CC1
    0.656	i	4.7	2.8	3.4	7.6	-7.2%
Cc1c(NC(=O)C(C)OC(=O)c2ccc([N+](=O)[O-])s2)c(=O)n(-c2ccccc2)n1C (centres undefined)
    0.702	i	77.1*	-3.9	-0.3	9.8	nt
COc1ccccc1CC(=O)N1CCC(n2nccc2NC(=O)C2CCOC2)CC1 (centres undefined)
    0.719	i	1.2	-3.1	3.8	-0.2	nt
O=C(CCc1ccccn1)N1CCCC(Nc2cccc(F)c2)C1 (centres undefined)
    0.62	i	1.4	-1.4	1.8	0.0	nt
O=C(Cn1c(=O)cnc2ccccc21)Nc1cccc(S(=O)(=O)N2CCOCC2)c1
    0.655	i	-14.2	2.5	nt	12.8	0.5%
Cn1c(SCC(=O)c2c(N)n(C)c(=O)n(C)c2=O)nnc1-c1ccccc1
    nt	nt	nt	0.7	1.6	nt	-2.3%
O=C1CCCC2=C1C(c1ccsc1)CC(=O)N2c1ccccc1F (centres undefined)
    0.702	i	1.2	-1.2	-0.4	2.8	30.1%
OC(CNCCCN1CCCCC1)COc1ccccc1 (centres undefined)
    0.653	nt	1.0	-2.0	4.0	nt	4.5%
C=CCc1ccccc1Oc1cc(OC)nc(N)n1
    0.67	i	0.4	1.1	nt	0.9	-15.6%
CN(C)CCCNC(=S)N(CCO)Cc1cc2cc3c(cc2[nH]c1=O)OCO3
    0.725	i	-90.1	0.0	-3.9	-7.0	nt
O=C(NCc1csc(-c2cccs2)n1)c1cccc(Cl)c1
    0.633	i	-4.2	5.9	5.1	5.5	nt
CC(=O)c1cccc(NC(=O)c2ccc(C(=O)Nc3cccc(C(C)=O)c3)nc2)c1
    0.705	i	-6.2	0.4	2.4	-1.0	-4.7%
S=c1[nH]nc(-c2ccccc2)n1Cc1ccccc1
    0.685	nt	4.5	-0.8	-0.8	nt	-6.6%
CCNC(=S)Nc1ccc2c(c1)c(=O)n(C)n2Cc1ccc(Cl)cc1
    nt	i	nt	2.3	nt	-1.1	nt
COc1ccc2c(c1OC)C(=O)N(c1ccc(C)cc1)C2
    0.681	i	-8.9	-0.6	3.1	-0.4	nt
CC(=O)N1CCOC12CCN(Cc1ccccc1)CC2
    nt	i	nt	1.3	nt	-0.1	-5.4%

Three entries out of the list above, sorted by the number in RanGTP-Imp inh, rising.
| SMILES | RanGTP-Imp inh |
| --- | --- |
| CN(C)CCCNC(=S)N(CCO)Cc1cc2cc3c(cc2[nH]c1=O)OCO3 | -3.9 |
| COc1ccc(OC)c(NC(=O)c2ccc3c(c2)C(=O)N(c2ccc(OC(C)=O)cc2)C3=O)c1 | 1.7 |
| OCCN1CCN(CCOc2ccccc2-c2ccccc2)CC1 | 3.4 |

Further compounds:
Second line of a record: Ecoli growth	FGF22 binding	UCH37 inh	HNF4A DNA FP	RanGTP-Imp inh	AF4-AF9 inh	Vif TR-FRET
CCC(=O)Oc1ccc(C(=O)Nc2c[nH]c(=O)[nH]c2=O)cc1
    0.718	i	3.1	-1.7	-1.6	-4.7	0.1%
CCOc1ccc(C(C)=O)cc1N1C(=O)C2C3C=CC(C3)C2C1=O (centres undefined)
    0.636	i	0.7	-2.6	-1.7	3.5	21.1%
Cc1cccc(NCc2ccccc2O)c1C
    0.709	nt	0.2	4.6	-1.0	nt	?
COc1ccc(NC(=O)C2Cc3c(-c4cccc(C(C)=O)c4)ccnc3O2)cc1OC (centres undefined)
    nt	i	nt	0.9	nt	-1.2	nt
C#Cc1ccc(NC(=O)C2(C)CCN2C(=O)C2(c3ccccc3)CC2)cc1 (centres undefined)
    nt	i	nt	4.5	nt	-0.6	nt
CSc1nc(N)nc(SCC(=O)Nc2ccc(Cl)cc2)c1C#N
    0.644	nt	3.6	-2.3	3.1	nt	11.5%
O=C(COC(=O)CCC(=O)Nc1nccs1)NCc1ccco1
    0.68	nt	1.0	-5.1	-3.0	nt	-1.7%
Cc1cccc(Cc2nnc(CCC(=O)N(C)Cc3ccncc3C)o2)c1
    0.647	i	-1.4	1.8	?	1.1	0.9%
Cc1ccc(Cl)cc1NC(=O)Cn1nc(-c2cccs2)ccc1=O
    0.677	i	-7.7	-2.2	0.1	-1.4	nt
O=C(Nc1ccc(F)cc1)N1CCCN(c2nccc(C(F)(F)F)n2)CC1
    0.658	i	3.7	-0.6	0.7	1.2	?
Cc1nc(-c2ccccc2)sc1-c1ccn[nH]1
    0.669	i	-310.7	-1.0	0.3	-3.0	2.5%
Cc1cc(NC(=O)COc2ccccc2C)ccc1NC(=O)c1ccco1
    0.588	i	1.9	-2.2	3.7	1.8	nt
O=C(NCC(c1ccco1)N1CCN(c2ccccc2F)CC1)c1ccco1 (centres undefined)
    0.706	i	0.3	0.5	1.3	4.4	-8.1%
CC1CCN(C(=O)Nc2cccc(NC(=O)N3CCC(C)CC3)c2)CC1
    0.766	nt	5.9	2.4	1.1	nt	0.2%
O=C1C2C3C=CC(C3)C2C(=O)N1CCN1CCN(S(=O)(=O)c2ccc3ccccc3c2)CC1 (centres undefined)
    0.751	nt	6.7	0.4	-0.9	nt	6.2%
CCCCCC1CC(CC(C)C(=O)Nc2nncs2)C(=O)O1 (centres undefined)
    0.707	i	4.4	-6.4	-1.2	?	9.1%
Nc1ccc(Br)cc1Br
    0.635	i	2.3	0.2	-0.1	1.6	0.3%
Cc1cccc(CSc2ncccc2C(=O)O)c1
    0.665	i	0.0	-1.0	0.1	0.0	-1.0%
COCc1cccc(-c2csc(C(NC(C)=O)c3ccc(F)c(F)c3)n2)c1 (centres undefined)
    nt	i	nt	-1.2	nt	0.8	nt
Cc1cc(=O)oc2c(C)cc(C(C)(C)C)cc12
    0.711	nt	0.6	-3.8	nt	-6.0	-2.0%

(further entries)
Second line of a record: Ecoli growth	FGF22 binding	UCH37 inh	HNF4A DNA FP	RanGTP-Imp inh	AF4-AF9 inh	Vif TR-FRET
C=CCn1c(SCC#N)nc2sc(CC)cc2c1=O
    0.69	i	0.1	-1.7	-4.1	0.1	0.0%
Cc1ccc(C(=O)Nc2cccc3cccnc23)cc1C
    0.67	i	0.9	3.8	?	1.2	nt
COc1ccc(CN=C2NN=C(c3ccc(Cl)cc3)CS2)cc1
    0.717	i	4.3	-1.8	2.9	-0.3	3.3%
COc1ccc(NC(=O)COC(=O)c2cc(C)oc2C)cc1OC
    0.69	i	1.6	6.3	nt	-15.0	-1.6%
CC1=C(C(=O)OCc2ccccc2)C(c2ccc(-c3ccccc3)cc2)NC(=O)N1CCCC(=O)O (centres undefined)
    0.708	i	3.3	nt	-3.8	-1.7	nt
Cn1ncc(C(=O)Nc2ccc(Cl)cc2)c1C(F)(F)F
    0.637	i	3.1	0.9	3.1	-1.7	-5.9%
C=CCc1ccccc1OCCCCN1CCCC1
    0.757	nt	5.2	-3.4	-1.8	nt	-3.5%
COc1ccc(C(=O)Nc2ccccc2C(=O)NCc2ccco2)cc1
    0.645	i	0.6	-4.3	?	-3.3	nt
COCC(=O)Nc1ccc(C(N)=O)cc1
    0.634	nt	1.5	-0.9	-2.0	nt	14.4%
CC(C)(C)n1nc2c(c1NC(=O)Cc1ccccc1)CS(=O)(=O)C2
    0.651	i	3.8	1.1	nt	0.0	nt
CCC(CC)NC(=O)c1ccc2c(c1)OCCO2
    0.664	nt	1.4	-1.8	3.6	nt	1.3%
CC(=O)N1CCc2cc(Br)cc(S(=O)(=O)NCCCN(C)Cc3ccccc3)c21
    0.67	i	-0.3	-1.7	1.9	-0.5	nt
CCn1c(SCC(=O)Nc2cccc(F)c2)nnc1-c1cc2cc(Br)ccc2o1
    0.796	nt	2.0	3.9	2.7	nt	-10.3%&-13.9%
COc1cccc(NC(=O)CC(C)=O)c1
    0.639	i	3.4	2.0	-17.6	-3.0	3.5%
CC(=O)Nc1ccc(-c2ccnc3c2CC(C)(C(=O)NCCC(F)(F)F)O3)cc1 (centres undefined)
    nt	i	nt	-0.1	nt	-0.9	nt
Cc1ccccc1N1CC(C(=O)Nc2nnc(SCC(=O)Nc3nccs3)s2)CC1=O (centres undefined)
    0.674	nt	4.0	-0.1	0.8	nt	-16.9%
CCOCCCN1C(=O)CN(C2CCCCC2)C(=O)C1c1ccc(OCC)c(OC)c1 (centres undefined)
    0.746	nt	1.3	4.2	8.0	nt	1.4%
Cc1ccc(C(O)(COC(=O)C(C)C)COC(=O)C(C)C)c(O)c1
    0.739	i	1.0	-5.1	4.6	0.2	nt
CCOc1ccc2[nH]c3c(NCC(C)C)ncnc3c2c1
    0.53	nt	-95.2	4.8	-1.4	nt	nt
O=C(NCC1([N+](=O)[O-])CN(C(=O)c2ccccc2)CN(C(=O)c2ccccc2)C1)c1ccccc1
    0.699	nt	1.5	-1.9	1.9	-1.3	16.0%

The list goes on:
Second line of a record: Ecoli growth	FGF22 binding	UCH37 inh	HNF4A DNA FP	RanGTP-Imp inh	AF4-AF9 inh	Vif TR-FRET
O=[N+]([O-])c1ccc(O)c2cccnc12
    0.633	nt	14.6	-12.0	-8.8	-0.4	-6.3%
CN(C)c1ccc(/C=N/Nc2ccc(-n3ccnc3)nn2)cc1
    nt	nt	nt	1.0	2.4	nt	14.1%
O=C(NCc1csc2ccccc12)Nc1cc(Cl)cc(Cl)c1
    0.681	i	3.6	2.9	1.5	-0.3	3.8%
CCOC(=O)C=C(C(=O)OCC)C(=O)OCC
    0.677	i	4.5	-4.5	nt	-0.9	2.3%
CCN(C(=O)CN1C(=O)NC2(CCc3ccccc32)C1=O)C1CCCCC1 (centres undefined)
    0.67	i	-1.4	-4.0	-1.3	-1.5	2.4%
COc1ccc(-c2cc(C(=O)Nc3ccccc3N3CCOCC3)c3ccccc3n2)cc1OC
    0.75	+	-28.6	1.1	6.9	-0.8	-9.2%
Cc1ccccc1OCc1nnc(SCC(=O)N2c3ccccc3Sc3ccc(Cl)cc32)o1
    0.739	nt	6.7	-0.8	1.1	nt	3.2%
CN(C)CCCN1c2ccc(O)cc2Sc2ccc(Cl)cc21
    nt	i	nt	1.6	nt	51.3*	4.2%
O=C(NCc1ccccc1)N1CCN(CCO)CC1
    nt	i	nt	2.8	-3.4	0.1	2.2%
O=C(CCN1C(=O)c2ccccc2C1=O)NCCCn1ccnc1
    0.706	i	0.9	2.0	-0.5	-1.4	-2.3%
Cc1ccccc1N1CCN(Cc2ccc(Br)o2)CC1
    0.623	i	4.9	-1.0	0.4	6.0	-4.6%
CCCCc1ccc(CC2S/C(=C(\C#N)C(=O)N3CCOCC3)N(c3ccccc3)C2=O)cc1 (centres undefined)
    0.701	nt	0.3	0.0	-1.5	nt	1.5%
CC(=O)c1ccccc1OCCCCN1CCCCC1
    0.702	i	2.3	1.3	-1.0	-1.5	nt
CCCC1CC(C(=O)Nc2ccccc2)C(=O)O1 (centres undefined)
    0.692	i	1.3	2.9	1.0	-3.2	nt
CCC(C)c1ccc(NC(=O)C2CCN(c3ncccn3)CC2)cc1 (centres undefined)
    0.708	nt	3.6	-1.0	1.9	nt	-2.7%
CCOC(=O)c1cnc(SCc2nc(N)nc(Nc3ccc(F)cc3)n2)nc1N
    0.625	nt	1.5	0.0	0.9	nt	0.4%
